Compound activity from PubChem BioAssay.
ID4 SMM – binders of human ID4 protein; small molecule microarray, Flag-ID4 binding, fluorescence F/B; P47928; 1.2% of 31,000 active; calls only; AID 624137;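 active = spot signal over background at p below 0.07 in all four prints; compounds were printed on slides so no solution concentration is given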;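 note: a binder raises fluorescence above local background on the spot; about 2 pmol printed per array spot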
Target sequence (P47928 whole entry, looked up): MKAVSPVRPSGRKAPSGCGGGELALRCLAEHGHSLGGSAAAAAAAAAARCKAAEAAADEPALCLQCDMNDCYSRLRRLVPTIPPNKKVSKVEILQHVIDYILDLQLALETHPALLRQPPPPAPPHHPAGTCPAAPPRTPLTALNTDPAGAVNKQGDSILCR
Calls only; i = inactive. The list is partial; count on the stated rates, not on these rows.

Clc1cccc(N2CCNCC2)c1
  ID4 SMM: i
CC(=O)O[C@H]1CC[C@]2(C=O)[C@H]3CC[C@]4(C)[C@@H](C5=CC(=O)OC5)CC[C@]4(O)[C@@H]3CC[C@]2(O)C1
  ID4 SMM: i
CCOc1ccc(C(Nc2ccccc2)P2(=S)OCCCO2)cc1 (configuration not stated)
  ID4 SMM: i
Cc1cc(C(F)F)n2nc(C(=O)Nc3ccc(Cl)cc3C(=O)c3ccccc3)nc2n1
  ID4 SMM: i
COc1ccc(C(CN(C)C)C2(O)CCCCC2)cc1 (configuration not stated)
  ID4 SMM: i
COc1cc2c(cc1-c1cc3cc4ccoc4cc3oc1=O)OCO2
  ID4 SMM: i
CCCN(CCC)C1CCc2cccc(O)c2C1 (configuration not stated)
  ID4 SMM: i
COc1ccc2c(c1)/C(=C/c1cnc[nH]1)C(=O)N2
  ID4 SMM: i
COc1ccccc1OCCCn1cc(C(=O)c2ccccc2)c2ccccc21
  ID4 SMM: i
Cc1ccc(-c2nc3ccc(C)cn3c2CC(=O)N(C)C)cc1
  ID4 SMM: i

CCCN(CCC)C1Cc2cc(OC)c(OC)cc2C1
  ID4 SMM: i
COC[C@H]1OC(=O)c2coc3c2[C@@]1(C)C1=C(C3=O)C2CCC(=O)[C@@]2(C)C[C@H]1OC(C)=O (some centres not stated)
  ID4 SMM: i
C[C@@H]([C@H](O)c1ccccc1)N(C)C
  ID4 SMM: i
CCC(=O)Nc1ccc(Cl)c(Cl)c1
  ID4 SMM: i
Cc1cc(C)cc(C(=O)OC2CC3CCC(C2)N3C)c1 (configuration not stated)
  ID4 SMM: i
c1ccc2c(c1)[nH]c1cnccc12
  ID4 SMM: i
CN1CCN(C(=O)COc2ccc(S(=O)(=O)NC3CCCCC3)cc2Cl)CC1
  ID4 SMM: i
CNC(=O)CSP(=S)(OC)OC
  ID4 SMM: i
Cn1cccc1CNCCc1ccc(F)cc1
  ID4 SMM: i
CC1(C)C2CC(=O)[C@]3(C)C(CC[C@@]4(C)[C@H](c5ccoc5)OC(=O)C5OC543)[C@@]2(C)[C@@H](O)C[C@H]1O (some centres not stated)
  ID4 SMM: i

Filtered by structure: the compounds so far containing a halogen.
Clc1cccc(N2CCNCC2)c1
  ID4 SMM: i
Cc1cc(C(F)F)n2nc(C(=O)Nc3ccc(Cl)cc3C(=O)c3ccccc3)nc2n1
  ID4 SMM: i
CCC(=O)Nc1ccc(Cl)c(Cl)c1
  ID4 SMM: i
CN1CCN(C(=O)COc2ccc(S(=O)(=O)NC3CCCCC3)cc2Cl)CC1
  ID4 SMM: i
Cn1cccc1CNCCc1ccc(F)cc1
  ID4 SMM: i

Additional structures follow.
N#CC(C#N)=Cc1ccc(O)cc1
  ID4 SMM: i
COc1c2c(c(CC=C(C)C)c3oc(=O)c(-c4ccc(O)cc4)c(O)c13)OC(C)(C)C=C2
  ID4 SMM: i
Fc1ccc(Sc2c(F)c(F)nc(N3CCNCC3)c2F)cc1
  ID4 SMM: i
CCCN[C@@H]1CCc2c(OC)cccc2[C@@H]1C
  ID4 SMM: i
CO[C@H]1[C@H](O)[C@H](O[C@H]2CC[C@]3(C)C4CC[C@]5(C)[C@H](C6=CC(=O)OC6)CC[C@]5(O)C4CC[C@@H]3C2)O[C@@H](C)[C@@H]1O (some centres not stated)
  ID4 SMM: i
COP(=S)(OC)Oc1ccc(SC)c(C)c1
  ID4 SMM: i
COc1cc(OC)c(OC)cc1C=O
  ID4 SMM: i
CN(CC(=O)Nc1ccc(Cl)cc1C(=O)c1ccccc1)S(=O)(=O)c1ccc(Cl)cc1
  ID4 SMM: i
CN1C2CCC1CC(OC(=O)c1cc(Cl)cc(Cl)c1)C2 (configuration not stated)
  ID4 SMM: i
CCC(C)/C=C(C)/C=C/C1=CC2=C(Cl)C(=O)C(C)(OC(C)=O)C(=O)C2=CO1 (configuration not stated)
  ID4 SMM: i
Cc1nnc2ccc(-c3cccc(C(F)(F)F)c3)nn12
  ID4 SMM: i

Grouped by structure, the entries above with a carbonyl joined to an NH by a bond outside any ring
Cc1cc(C(F)F)n2nc(C(=O)Nc3ccc(Cl)cc3C(=O)c3ccccc3)nc2n1
  ID4 SMM: i
CCC(=O)Nc1ccc(Cl)c(Cl)c1
  ID4 SMM: i
CNC(=O)CSP(=S)(OC)OC
  ID4 SMM: i
CN(CC(=O)Nc1ccc(Cl)cc1C(=O)c1ccccc1)S(=O)(=O)c1ccc(Cl)cc1
  ID4 SMM: i
